# Screens deposited in PubChem by Center for Chemical Genomics, University of Michigan.
# TAR Tat displ = TAR RNA-Tat peptide displacers, HIV-1, primary screen, biochemical, FRET, FAM/TAMRA-labeled Tat. HIV-1 TAR RNA, Tat peptide displacement FRET; active compounds read high. z-score (concentration not given with the values). hit rate 0.6% among 100,000. AID 1259389, 2018;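 further: score is relative to mean and SD of negative controls; some compounds called inactive have numbers as strong as hits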
# CDC25B-CDK2 inh = primary biochemical HTRF screen for blockers of M-phase inducer phosphatase 2 binding to CDK2/cyclin A; P30305+P24941; HTRF CDC25B-CDK2/CyclinA binding, anti-His/anti-Flag; active compounds read high; z-score (test concentration not listed); hit rate 0.72% among 94,000; AID 1259370, 2018;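 further: score is relative to mean and SD of negative controls; strong numbers were not always called active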
# Numbers without * were called inactive; . = not tested or not shown.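 How the source made its calls: active means z-score from 3 up in half or more of its runs; inactive means the rest.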
# The opening 3 compounds, ahead of the listing:
structure,CDC25B-CDK2 inh,TAR Tat displ
O=C(Cn1c(-c2cncs2)nc2ccccc21)NCc1cccs1,-1.2,-0.59
COC(=O)CN1C(=O)C(C)(C)c2cc(S(=O)(=O)NC3CCCC3)ccc21,.,-0.03
O=C(CSCc1cc(=O)n2nc(C3CC3)sc2n1)Nc1ccc(F)cc1,.,-1.4

# The whole of this part, from the start:
structure,CDC25B-CDK2 inh,TAR Tat displ
O=C(Cn1c(-c2cncs2)nc2ccccc21)NCc1cccs1,-1.2,-0.59
COC(=O)CN1C(=O)C(C)(C)c2cc(S(=O)(=O)NC3CCCC3)ccc21,.,-0.03
O=C(CSCc1cc(=O)n2nc(C3CC3)sc2n1)Nc1ccc(F)cc1,.,-1.4
CSC1=C(C#N)C(c2ccc3c(c2)OCO3)C2=C(CCCC2=O)N1 (stereo unspecified),-2.8,2.6
Fc1ccc(-n2c(-c3ccccc3)nnc2-c2ccco2)cc1,0.08,1.5
COc1ccc(C2CC(c3ccco3)=Nc3ccccc3S2)cc1 (stereo unspecified),-0.14,.
Cc1ccc(OCc2nn3c(-c4ccccc4Br)nnc3s2)cc1,0.67,1.7
CCN1CCN(CCNC(=O)CCCN2C(=O)CCn3nc(-c4cccn4C)cc32)CC1,.,0.52
Cc1cc(C)cc(NC(=O)N2CCN3CCCCC3C2)c1 (stereo unspecified),.,-0.27
CN(C1CCCCC1)S(=O)(=O)N1CCCC(C(=O)N2CCN(c3ccc(F)cc3)CC2)C1 (stereo unspecified),.,3.1
O=c1c2c(nc3n1CC(O)CS3)-c1ccccc1CC21CCCC1 (stereo unspecified),-5.5,.
Cc1nnc2n1NC(c1ccc(F)cc1)C(C(=O)Nc1ccc(Br)cc1Cl)S2 (stereo unspecified),-0.56,-0.37
COc1cc(C2c3c(oc4ccccc4c3=O)C(=O)N2c2nnc(C)s2)ccc1O (stereo unspecified),-0.31,1.2
CCCOC(=O)C1=C(C)NC2=C(C(=O)CCC2)C1c1ccccc1Br (stereo unspecified),-2.1,1.2
COCCCNC(=O)CN1c2ccccc2NC2=C(C(=O)CCC2)C1c1ccco1 (stereo unspecified),.,-11
O=C(Cc1cccs1)Nc1nnc2n1CCCS2,.,0.66
CCOCCCNc1ncnc2c1sc1nc3c(cc12)COC(C)(C)C3,.,0.41
O=C1CC(c2cccc(F)c2F)c2c(nc(SCc3cccc(Cl)c3)[nH]c2=O)N1 (stereo unspecified),-0.93,0.61
O=C(Nc1nnc(CCc2ccccc2)s1)C(=O)c1c[nH]c2ccccc12,-0.76,2.5
O=C(NCCn1cnc2cc(C(=O)N3CCCC3)ccc21)NC1CCCC1,.,-1
Cc1cc(CN2CCN(c3cc(Cl)ccc3C)CC2)cs1,.,1.2
Cc1cc(NC(=O)NCc2c(-n3cccc3)sc3c2CCCC3)ccc1Br,-0.89,2.6
Cc1cc(C)cc(OCC(=O)N(Cc2ccco2)C2CCS(=O)(=O)C2)c1 (stereo unspecified),-0.9,1.6
COc1cc(CSc2ncc(CO)n2Cc2ccc(Cl)cc2)cc(OC)c1,.,1.6
COc1cc(C2CC(=O)Nc3nc(N)[nH]c(=O)c32)ccc1OCc1ccccc1Cl (stereo unspecified),0.29,-0.17
O=c1cc(CSc2nc3ccccc3c3nc4ccccc4n23)nc2ccccn12,0.59,.
CCCCn1c(=O)c2c(nc3n2CCN3c2cc(C)cc(C)c2)n(C)c1=O,.,2.4
CCOC(=O)c1sc2ccccc2c1S(=O)(=O)N1CCN(c2ncccn2)CC1,.,0.69
C=CCn1c(SCc2ccc(C(=O)NCCO)cc2)nc2sc3c(c2c1=O)CCCC3,-1.4,0.86
Cc1cc(C)c(C)c(S(=O)(=O)NCc2ccccn2)c1C,-0.41,1.5
Cc1c(C(=O)Oc2cccc(C(F)(F)F)c2)n(C)oc1=O,-2.1,.
O=C(NCCC1=CCCCC1)c1cc2c(=O)n3ccccc3nc2s1,-0.24,.
Cc1cccc(Nc2c3c(nc4nncn24)CCC3)c1,-2.3,1.8
COc1ccc(OC)c(Sc2ccc(Cl)cc2[N+](=O)[O-])c1,0.65,.
c1csc(-c2cc3ccccc3[nH]2)c1,-1.2,-1.2
Cc1onc(-c2ccccc2)c1C(=O)OCC(=O)c1ccccc1,-1.8,3.2
CN1C(=O)C(C)(C)c2cc(S(=O)(=O)N3CCC(C(N)=O)CC3)ccc21,.,2
NS(=O)(=O)c1cc([N+](=O)[O-])c(N2CCCCC2)s1,0.33,.
Cn1cccc1-c1cc2n(n1)CCC(=O)N2CCCC(=O)NCCN1CCOCC1,.,-1.2
O=C(c1c2c(nc3ccccc13)C(=O)N(C1CCCCC1)C2)N1CCOCC1,.,0.28

# Some of these compounds in order of SMILES length, high to low.
structure,CDC25B-CDK2 inh,TAR Tat displ
CCN1CCN(CCNC(=O)CCCN2C(=O)CCn3nc(-c4cccn4C)cc32)CC1,.,0.52
O=C(Nc1nnc(CCc2ccccc2)s1)C(=O)c1c[nH]c2ccccc12,-0.76,2.5
COc1cc(CSc2ncc(CO)n2Cc2ccc(Cl)cc2)cc(OC)c1,.,1.6

# (continued)
structure,CDC25B-CDK2 inh,TAR Tat displ
CCCCN(C)CCNS(=O)(=O)c1cc(Br)cc2c1N(C(=O)C1CC1)CC2,-0.39,.
O=C(COc1ccc(Cl)cc1)OCc1cc(=O)n2ccsc2n1,.,-0.22
Cc1cc(C)c(S(=O)(=O)Nc2cc(Br)c(O)c3ccccc23)c(C)c1,19*,.
C=CCc1ccc(Oc2ccc([N+](=O)[O-])cn2)c(OC)c1,0.54,.
COc1ccc(OCC(=O)N(Cc2cccs2)C2CCS(=O)(=O)C2)cc1 (stereo unspecified),-0.26,0.82
Cc1ccc(Nc2c3c(nc4ncnn24)CCC3)cc1Cl,.,0.35
CCc1ccc(-c2cc(C)no2)cc1S(=O)(=O)N1CCc2ccccc21,.,-1.3
CCCN1C=NS(=O)(=O)c2cc(C(=O)NCC3CCCO3)ccc21 (stereo unspecified),.,1.2
COc1ccc(C2CC(=O)C3=C(C2)OC(N)=C(C#N)C3c2ccc(C)cc2)cc1 (stereo unspecified),-1.7,.
O=c1[nH]c2ncccc2c(=O)n1Cc1ccc(Cl)cc1,-1.2,1.6
NC(=O)c1cc(S(=O)(=O)N(Cc2ccco2)CC2CCCO2)cs1 (stereo unspecified),.,0.58
CNC(=O)n1nccc1-c1sc2ccccc2c1C,-0.94,.
Cc1oc2cc(O)ccc2c(=O)c1Oc1ccccc1Br,0.47,1.3
COc1ccc(/C=C/c2nc(C#N)c(N3CCc4ccccc4C3)o2)cc1OC,0.43,1.8
CCc1cccc(C)c1-n1nnnc1C1(N2CCOCC2)CCCC1,.,0.36
COc1ccc(Cl)cc1NC(=O)CSc1nnc(C)n2c1cc1sccc12,.,3.6
Cc1ccc(S(=O)(=O)NCCc2nnc3ccc(SCc4ccc(F)cc4)nn23)cc1,.,1.3
CCC(=O)N1CCc2cc(Br)cc(S(=O)(=O)CCC(=O)N3CCCCC3C)c21 (stereo unspecified),-0.41,.
CSc1ccc(CNC(=O)c2ccc(NC(=O)C3=CSCCO3)cc2)cc1,.,1.2
c1cnc(Nc2nc(-c3cccnc3)cs2)nc1,3.4,0.85
O=C(CSc1nc2[nH]ncc2c(=O)n1-c1cccc2ccccc12)Nc1ccc(Cl)cc1,.,2.6
CCCCSc1nc2c(c(=O)[nH]1)CCCC2,-1.3,0.89
Cc1ccn2c(=O)c(C(=O)NCc3ccncc3)c(O)nc2c1,-2.5,-1.8
O=c1c2sc3ccccc3c2n(Cc2ccc(F)cc2)c(=O)n1Cc1ccco1,-0.95,-0.69
N#CCCn1ncc(C#N)c1N,-0.05,.
O=C(CCc1nnc2ccc(NCc3ccc4c(c3)OCO4)nn12)Nc1ccc(F)c(F)c1,.,0.51
O=C(Nc1ccc(Br)cc1)N1CCCC1c1ccco1 (stereo unspecified),-0.81,0.98
CC(=O)Nc1ccc(OCc2cc(=O)n3cccc(C)c3n2)cc1,.,0.38
Cc1noc(/C=C/N(C)C)c1S(=O)(=O)N1CCCC(C(=O)Nc2ccc(F)cc2F)C1 (stereo unspecified),-0.27,0.63
Cc1[nH]c(C)c(S(=O)(=O)NCc2cccs2)c1C(=O)N1CCCC1,.,-1.1
Cc1ccc(-c2noc(CSc3nnc(C)n3-c3ccc(C)c(C)c3)n2)cc1,0.07,0.07
Cc1cc(-c2ccc(C)c(S(=O)(=O)NCCCN3CCC(C)CC3)c2)on1,.,1.4
COc1ccc(-n2nc(C(=O)NC3CC3)c3c4ccccc4n(C)c3c2=O)cc1,-0.22,.
Cc1cc2c3c([nH]c2cc1S(=O)(=O)NCCCN1CCOCC1)CC(C)(C)CC3=O,.,0.97
O=C1c2cccnc2C(=O)N1Cc1ccc(S(=O)(=O)Nc2ccccc2Cl)s1,.,-0.29
CCOC(=O)c1cnc2ccc(C(=O)OC)cc2c1NC1CC(C)(C)NC(C)(C)C1,0.21,.
CCN1C(=O)c2cc(C(=O)NCCCOC)nn2CC1(C)C(=O)NC1CCCC1 (stereo unspecified),.,1.1
CCC(C(=O)N1CCOCC1)n1nc(C)c2sc3ccccc3c2c1=O (stereo unspecified),-2.3,1.8
Cc1cc(C)c2oc(-c3ccc(C)c(N=Cc4cccc([N+](=O)[O-])c4O)c3)nc2c1,0.58,.
Cc1ccc(/C=N/N=C2\NC(=O)CS2)o1,-1.5,.
Cc1c(C(=O)N2CCCC2)c(S(=O)(=O)Nc2ccc(S(N)(=O)=O)cc2)c(C)n1C,.,-0.01
CCOC(=O)C1CSC(CC(=O)Nc2ccc(OC(F)(F)F)cc2)C(=O)N1 (stereo unspecified),-1,.
Cc1sc(-c2cc3c([nH]c2=O)CCCC3=O)nc1-c1ccc(Cl)cc1,0.76,-5
CCOC(=O)c1sc2nc[nH]c(=O)c2c1C,-0.55,0.27
CCCCn1cc(S(=O)(=O)c2ccccc2)c(=O)c2cc(OCC)ccc21,1.7,1.1
O=S(=O)(Nc1ccc(Oc2ncnc3cc(Cl)ccc23)nc1)c1cccs1,-0.24,.
Cc1ccc2nc(COc3ccccc3C(C)C)[nH]c2c1,-0.74,1.4
Cc1ccc(CN2C(=O)CSc3ccc(NC(=O)Nc4cc(C)on4)cc32)cc1,-0.6,0.67
OCCSc1nc2ccccc2n1CCOc1ccccc1,-1.3,0.58
Cc1onc(-c2ccccc2)c1CNS(=O)(=O)c1ccc2c(c1)OCCN2C,-3,.
Cc1c(C)c(C)c(S(=O)(=O)Nc2ccc3c(c2)CC(=O)N3C)c(C)c1C,.,1.2
CC1CCCCC1NC(=O)C1CCCN(S(=O)(=O)c2ccc3c(c2)C(C)(C)C(=O)N3C)C1 (stereo unspecified),-1.8,1.3
CCCCCSc1nc2n(n1)C(c1cccs1)C(C(=O)OCC)=C(C)N2 (stereo unspecified),-1.1,0.79
COc1ccc(Cl)cc1N(C)C(=O)c1noc2c1CCc1sccc1-2,.,0.53
O=C(Nc1nnc(C(F)(F)F)s1)c1ccccc1,-1.8,.
O=C1N(Cc2cccc(F)c2)C2CS(=O)(=O)CC2N1c1ccc(F)cc1 (stereo unspecified),.,0.25

# More entries.
structure,CDC25B-CDK2 inh,TAR Tat displ
CNC(=O)c1c(NC(=O)c2ccc(C(=O)c3ccccc3)cc2)sc2c1CCC2,.,0.7
CC(C)(C)c1nc2scc(-c3ccccc3)c2c(=O)o1,5.9*,1.1
Cc1cc(C)nc(NC(=O)Nc2ccc(Cl)cc2)n1,-0.69,1.6
O=C(CCc1nnc2ccc(N3CCCC3)nn12)N1CCCCC1,.,0.7
CCN1CCN(c2ncc3c(n2)CCN(Cc2cc(Br)cs2)C3)CC1,.,0.77
O=C(CCCCn1c(=S)[nH]c2ccsc2c1=O)N1CCCC1,-1.6,.
COC(=O)C1C(=O)CC(C)(O)C(C(=O)OC)C1c1cccnc1 (stereo unspecified),-1.1,.
Cc1ccc2c(C)nc(NC3=NCN(C4CCCC4)CN3)nc2c1,11,.
Oc1ccc(C2Nc3cccc4cccc(c34)N2)cc1,-1.5,4.9*
O=C1CC(=O)Nc2cc(S(=O)(=O)N3CCOc4ccccc4C3)ccc2N1,.,0.78
Cc1ccc(-c2nc3ccccc3[nH]2)cc1,-0.06,1.5
O=C(CC1Sc2ccccc2NC1=O)Nc1ccccc1Cl (stereo unspecified),-0.84,-0.45
COc1ccc(OC)c(NS(=O)(=O)c2cc(-c3cnc(C)o3)ccc2C)c1,.,1.4
COc1ccccc1N1CCN(c2nc(Nc3ccccc3)c3cnn(C)c3n2)CC1,.,0.74
COc1ccccc1-c1coc2cc(OC(=O)c3ccccc3Cl)ccc2c1=O,-2.2,-0.8
Cc1cc(C2CCCN2C(=O)c2c(C)noc2C)no1 (stereo unspecified),.,2.9
O=C1Nc2cc(C(F)(F)F)ccc2Oc2ccsc21,-1.3,.
O=C(Nc1ccc(Cl)cc1)Nc1nnc(N2CCCC2)s1,-0.06,0.94
COc1cc(/C=C/C(=O)c2cc(C)c(C)cc2C)cc(OC)c1OC,-1.3,.
COC(=O)c1ccc(CSc2ccc3nnc(-c4ccc(F)cc4)n3n2)o1,-1,.
COc1ccccc1-c1nc2c3c4c(sc3ncn2n1)CCCC4,-0.61,3.7
O=C(O)/C=C/C(=O)c1ccc(C2CCCCC2)cc1,-0.92,.
